# Bioassay records: PubChem, National Center for Advancing Translational Sciences (NCATS)
# HSD17B inhib – inhibitors of human HSD17B10 dehydrogenase; actives 7.6% (n = 75,000); recombinant HSD17B10, NADH fluorescence kinetic; many of its hits are not listed in these tables; Potency, µM (highest dose often 57.1 µM), for inactives: at the highest dose activity change, negative = inhibition, usual class: inhibitors; Q99714; active means well fitted inhibition curve with a large enough effect; inconclusive means small, poorly fitted or top-dose-only effect; inactive means no such curve, though single readings can be large or run the other way;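 further: the protocol describes HADH2 (HSD17B10) and not the HSD17B4 of the title; nearly all actives have a fitted effect of over 70% in size; most hits overshoot -100% by far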
#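 Activity followed as NADH fluorescence increase (ex 360, em 450 nm) every 30 seconds for 4 min, using final 90 uM beta-hydroxybutyryl CoA and 1 mM NAD+. Recombinant His-tagged enzyme, 20 nM, pH 9.0 Tris buffer, 15 min compound preincubation.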
# * hit, by the source's call; ? = inconclusive; & = joins results of further samples; [ ] = another dose, or the depositor's remark. On the % scale 0 is the no-effect control and ±100 the full control effect; potency means the concentration at half of the fitted maximal effect. Not all compounds are listed (hit frequency here may not be typical).
SMILES | HSD17B inhib
CN1C[C@@H]2C(c3ccccc3)C3(c4cccnc4)CC2(C3)[C@H]1c1ccccc1 (stereo partly specified) | 2%
CCS(=O)(=O)N1CCC(c2nc(-c3ccc(C(F)(F)F)cc3)no2)CC1 | 8%
CC1CCCCN1C(=O)C1CC(c2ccc(F)cc2)=NO1 (stereo unspecified) | 16%
O=C(c1c(F)c(F)c(F)c(F)c1F)N1CCc2ccccc21 | 7%
CCCc1cc2c(n1CCc1ccc(Cl)cc1)C(C)C1CN(C(=O)c3ccccc3)C(C)(C(=O)OC)C21 (stereo unspecified) | -22%
Cn1cnnc1SCc1ccc(-c2ccc(Br)cc2)o1 | ?
O=C(c1ccco1)N1CCN(C(=O)c2ccccc2OC(=O)C23CC4CC(CC(C4)C2)C3)CC1 | 8%
CC(CN1CCCCC1)OC(=O)c1ccc(Cl)cc1Cl (stereo unspecified) | 8%
CC1Cc2ccccc2N1S(=O)(=O)c1cccs1 (stereo unspecified) | -5%
Cc1nc2sc3c(c2c(=O)[nH]1)CCCC3 | 2%[11.4 µM]
CC(C)c1ccc(S(=O)(=O)N2CCN(CC(=O)Nc3ccc4c(c3)OCO4)CC2)cc1 | -7%
COCc1cc(C)nc(SCC(=O)Nc2cccc(C)c2C)c1C#N | 0%
COc1ccc(CN2CCN(c3cccc(C)c3C)CC2)cc1OC | -2%
CCOC(=O)CCC(=O)NCc1ccc2c(c1)cc(C)n2C | -29%
Cc1nc(NCc2ccccc2)c2nc(-c3ccccc3)n(C(C)CN(C)C)c2n1 (stereo unspecified) | 32µM*
O=C(CCN1CCCCCC1)Nc1cccc(Cl)c1 | 8%
CCOC(=O)N1CCC(N2Cc3cccc(C(=O)NC(C)c4ccc5c(c4)OCCO5)c3C2=O)CC1 (stereo unspecified) | -5%
CC(=O)c1cc2c(cc1NC(=O)CCCC(=O)O)OCO2 | -25%
CCC(=O)OCCn1c(Br)nc2c1c(=O)[nH]c(=O)n2C | 2%
O=S(=O)(c1ccc(SCCO)nc1)N1CCCC1 | -4%
CC(=O)N1CCC2(CC1)CC(=O)c1cc(OCC(=O)NCc3ccco3)ccc1O2 | 25µM*
NC=O | 1%
O=c1cc(CSc2ccc(Cl)cc2)nc(N2CCCCC2)[nH]1 | 9%
CS(=O)(=O)N(CC(=O)NCc1ccco1)c1ccc2c(c1)OCO2 | 0%
Cc1nnc(NC(=O)CCCN2C(=O)c3ccccc3C2=O)s1 | 10%
CCOc1ccc(S(=O)(=O)n2nc(C)cc2C)c2ccccc12 | 9%
CC(C)C(=O)Nc1cccc(C(=O)Nc2nncs2)c1 | -8%
c1ccc2c(c1)C(=Nn1cnnc1)c1ccccc1-2 | -1%
CN(C)CCOC(=O)CCc1ccccc1 | 5%
c1ccc(C2CC(c3ccccc3)n3ncnc3N2)cc1 (stereo unspecified) | 6%

# Quoted from the listing:
# Value for Cc1nnc(NC(=O)CCCN2C(=O)c3ccccc3C2=O)s1 under HSD17B inhib: 10%
# Value for CC(=O)N1CCC2(CC1)CC(=O)c1cc(OCC(=O)NCc3ccco3)ccc1O2 under HSD17B inhib: 25µM*
# Value for O=C(c1c(F)c(F)c(F)c(F)c1F)N1CCc2ccccc21 under HSD17B inhib: 7%
# Value for CCOC(=O)N1CCC(N2Cc3cccc(C(=O)NC(C)c4ccc5c(c4)OCCO5)c3C2=O)CC1 (stereo unspecified) under HSD17B inhib: -5%

# A second format for part of the listing above.
SMILES: CC(C)c1ccc(S(=O)(=O)N2CCN(CC(=O)Nc3ccc4c(c3)OCO4)CC2)cc1
  HSD17B inhib: -7%

SMILES: CC1CCCCN1C(=O)C1CC(c2ccc(F)cc2)=NO1 (stereo unspecified)
  HSD17B inhib: 16%

# New compounds follow
SMILES | HSD17B inhib
Cc1ccc(S(=O)(=O)N(C)Cc2nc(-c3ccc(Br)cc3)no2)cc1 | 5%
CCN(CC)CC(=O)Nc1ccc(-c2nc3cc(NC(=O)CN(CC)CC)ccc3o2)cc1 | 13µM*
O=C1c2[nH]nc(-c3ccccc3O)c2C(c2ccccc2F)N1Cc1ccco1 (stereo unspecified) | -13%
CCOC(=O)N1CCC(NC(=O)C2CCCN(S(=O)(=O)c3cccc4nsnc34)C2)CC1 (stereo unspecified) | -5%
CC(=O)NC1C(=O)SC1(C)C (stereo unspecified) | -2%
CNc1ncncc1-c1ccccc1C | 10%
CCNc1nc(NCc2ccccc2)nc(Oc2ccc(=O)[nH]n2)n1 | 5%
Oc1c(Br)cc(Br)cc1CN(Cc1cc(Br)cc(Br)c1O)C1CCCCC1 | -7%[11.4 µM]
CCCOc1ccc(/C(O)=C2/C(=O)C(=O)N(CCN(C)C)C2c2ccco2)cc1 (stereo unspecified) | 1%
CC(C)(O)C(=O)O | -3%
COc1ccc(OC)c(S(=O)(=O)N2c3ccccc3CC2C)c1 (stereo unspecified) | 7%
Cc1ccc(-n2c(C)cc(C)c(C#N)c2=O)cc1 | -5%
O=C(CS(=O)(=O)c1c[nH]c2ccccc12)N1CCCCC1 | 2%
CCn1c(C(=O)N2CCC(C(=O)NCc3cccs3)CC2)cc2sccc21 | -1%
CC(c1ccccc1)N1CC(C(=O)N2CCN(c3ccccc3)CC2)CC1=O (stereo unspecified) | 0%
CCCOC(=O)c1cc(=O)[nH]c2ccccc12 | 25µM*
O=C(O)c1cccnc1SC1CC(=O)N(Cc2ccccc2)C1=O (stereo unspecified) | -8%
Cc1ccc(C(=O)CSc2nnc(-c3ccccc3N)n2C)cc1 | -4%
CCCCOc1ccc(C(=O)CCNC(C(=O)O)C(C)CC)cc1 (stereo unspecified) | 0%
COc1ccc(C(=O)Nc2ccc3c(c2)nc2n3CCSC2)cc1 | ?
COc1ccccc1OCc1ccc(C(=O)n2nc(C)c(Cl)c2C)o1 | -3%
CCC(=Nc1ccc(Cc2ccncc2)cc1)c1c(O)n(C)c(=O)n(C)c1=O | -2%
O=C(Nc1ccc2c(c1)OCO2)C1CCN(C(=O)c2cccs2)CC1 | -9%
CC(=O)N1CCc2cc(S(=O)(=O)NCCC(=O)N3CCc4ccccc4C3)ccc21 | 5%
CCCOc1ccc(C2c3c(oc4ccccc4c3=O)C(=O)N2CCCN2CCOCC2)cc1 (stereo unspecified) | -17%
Cc1nnc2ccc(N3CCCC3)nn12 | -18%
CCOC(=O)/C(C(N)=NC)=C(\O)c1ccccc1 | -13%
COc1ccc(OC)c(-c2cc(C(=O)Nc3c(C)nn(Cc4ccccc4)c3C)no2)c1 | ?
COc1ccc(OC)c(C2=NOC(C(=O)Nc3cc(C)nn3-c3ccccc3)C2)c1 (stereo unspecified) | -25%
CCc1ccc2[nH]c(=O)c(CN(CCN(CC)CC)C(=O)NC3CCCCC3)cc2c1 | -13%

# Among those listed so far, these contain two or more sulfur atoms:
SMILES | HSD17B inhib
CC1Cc2ccccc2N1S(=O)(=O)c1cccs1 (stereo unspecified) | -5%
O=S(=O)(c1ccc(SCCO)nc1)N1CCCC1 | -4%
CCOC(=O)N1CCC(NC(=O)C2CCCN(S(=O)(=O)c3cccc4nsnc34)C2)CC1 (stereo unspecified) | -5%
CCn1c(C(=O)N2CCC(C(=O)NCc3cccs3)CC2)cc2sccc21 | -1%

# Quoted at random: 2 compounds from above.
SMILES | HSD17B inhib
CC(c1ccccc1)N1CC(C(=O)N2CCN(c3ccccc3)CC2)CC1=O (stereo unspecified) | 0%
CCc1ccc2[nH]c(=O)c(CN(CCN(CC)CC)C(=O)NC3CCCCC3)cc2c1 | -13%

# More results follow.
SMILES | HSD17B inhib
O=C(Nc1ccc2c(c1)OCO2)C(c1ccccc1)N1CCCCC1 (stereo unspecified) | -6%
O=C1Nc2ccccc2N=C(c2ccccc2)C1N1CCOCC1 (stereo unspecified) | -5%
CN(CC(=O)Nc1ccncc1)S(=O)(=O)c1ccccc1 | -1%
CCOc1cccc2cc(C(=O)N3CCc4ccccc4C3)c(=O)oc12 | 32µM*
CCOc1ccc(-c2[nH]nc3c2C(c2ccc(O)cc2)C(C#N)=C(N)O3)cc1 (stereo unspecified) | -23%
Cc1ccccc1C(=O)NC1CCN(Cc2nnnn2CCc2ccccc2)CC1 | 2%
COc1ccc(C/C(N)=N/n2cnnc2)cc1 | -1%
CCC(=O)Nc1c2c(nn1-c1ccc(C)cc1C)CSC2 | 5%
COC(=O)c1ccc(NC(=O)CSc2nnc(COc3ccccc3)n2C)cc1 | 6%
CCN(Cc1ccccc1)Cc1c(F)cccc1F | -8%
COc1cccc(NC(=O)c2oc3ccccc3c2NC(=O)C2CC2)c1 | 124%[activator]
O=c1c2c3c(sc2n2cnnc2n1CCc1ccccc1)CCCC3 | 7%
COC(=O)c1ccc(C(NC(=O)OCc2ccccc2)/C(F)=C/[C@@H](C)C(=O)N[C@@H](CO)Cc2ccccc2)cc1 (stereo partly specified) | 12%
CCCCc1nc2c(c3c1CC(C)OC3)CN(CCOc1ccccc1)CC2 (stereo unspecified) | 1%[11.4 µM]
COCC(C)NC(=O)NC1(C(F)(F)F)Oc2ccc(Cl)cc2O1 (stereo unspecified) | -27%
CCc1nc2oc3cc(OC)ccc3c(=O)c2c(=O)n1Cc1ccco1 | -22%
O=S(=O)(c1cccc2nsnc12)N1CCOCC1 | -1%
CCOC(=O)N1CCN(c2cc3nccnc3cc2F)CC1 | 0%
Cc1ccc(C(=O)CC2(O)C(=O)N(Cc3ccccc3)c3ccccc32)o1 (stereo unspecified) | 3.2µM*
CCC(=O)Nc1ccc(C(=O)n2nc(C)cc2C)cc1 | 2%
O=S(=O)(c1ccc(OCc2nc3ccccc3s2)c(Cl)c1)N1CCOCC1 | 5%
COc1ccc(C(=O)Nc2ccc(Cl)cc2C(=O)NCc2ccco2)cc1OC | 234%[activator]
COc1ncnc2c1N=C1CC(C)(C)CC(N)=C1S2 | -5%
COCCCNC(=O)CCCOc1ccccc1 | -6%
Cn1c(=O)c(-c2ccc(F)cc2)nc2cnc(Nc3ccccc3)nc21 | 6%
NC1(C(=O)O)C[C@H](C(=O)O)[C@H](C(=O)O)C1 (stereo partly specified) | 12%
CCOC(=O)CSC1=C(C#N)C(c2ccco2)C(C(=O)OCc2ccccc2)=C(C)N1 (stereo unspecified) | 33%[activator]
O=C1C=C(NCCO)C(=O)c2cnccc21 | 3%
CCOc1ccc(-c2nnn(CC(=O)NCc3cccs3)n2)cc1 | 2%
CC1CCC2C(=O)OC(Cc3ccccc3)CN2C1c1ccc(Br)cc1 (stereo unspecified) | 3%&0%[11.4 µM]

# New compounds follow.
SMILES | HSD17B inhib
CCCCCCNC(=O)CC(NS(=O)(=O)c1ccc(NC(C)=O)cc1)C(C)C (stereo unspecified) | -7%
CCCCC(NS(=O)(=O)c1ccc(OC)cc1)C(=O)O (stereo unspecified) | 3%
CN(CC(=O)NC(=O)NCc1ccco1)Cc1nc2ccccc2c(=O)[nH]1 | ?
CC(=O)Nc1nonc1-c1ccccc1 | 8%
O=C(CN1CCN(c2ncccn2)CC1)N(Cc1ccccc1)c1ccc(F)cc1 | 2%
N=C1C(c2ccccc2)=C(O)C2CCc3ccccc3N12 (stereo unspecified) | 4%
CCOC(=O)C1CCCN(C(=O)N2CCOCC2)C1 (stereo unspecified) | 7%
COCCn1c(=S)[nH]c2cc(C(=O)N3CCC(C(N)=O)(N4CCCCC4)CC3)ccc2c1=O | 1%
COc1cc(/C=N/NC(=O)c2cc(-c3ccccc3)n[nH]2)cc(OC)c1OC | -9%
COc1cccc(C(=O)N2CCCc3ccccc32)c1 | 5%
O=C(COC(=O)C(O)c1ccccc1)c1ccc2c(c1)OCCO2 (stereo unspecified) | 0%
CCOc1cc(C(=O)Nc2ccc3c(c2)OCO3)ccc1OC(F)F | -17%
CCOC(=O)C1C(=O)NC(N2CCN(CC)CC2)=NC1c1ccccc1 (stereo unspecified) | 1%
CC(=O)N1C(=O)C2(C(C#N)=C(N)Oc3c2c(C)nn3-c2ccccc2)c2ccccc21 (stereo unspecified) | 9%
COc1ccccc1-c1c(C)nn2c(C)c(C(C)=O)cnc12 | 1%
O=C(Nc1nccs1)c1ccc(S(=O)(=O)NCC2CCCCC2)cc1 | ?
CCc1nnc(NC(=O)c2cccc(S(=O)(=O)N3CCN(c4ccccc4)CC3)c2)s1 | -27%
O=C(Nc1ccccc1N1CCCC1)c1ccco1 | 1%
CCCCc1ccc(NC(=O)CC(C)=O)cc1 | -3%
COc1ccc2c(c1)C1CC(C)(NC(=O)C1C(=O)c1ccccc1)O2 (stereo unspecified) | -4%
Cc1ccc2nc(NC3=NCN(Cc4ccccc4)CN3)nc(C)c2c1 | 1%
O=C(CCC1N=C2c3ccccc3N=C(SCc3ccc(F)cc3)N2C1=O)NCc1ccco1 (stereo unspecified) | ?
COc1ccc(OC)c(S(=O)(=O)N2CCC(C(=O)N3CCN(Cc4ccccc4)CC3)CC2)c1 | 3%
COc1ccc(S(=O)(=O)CCC(=O)N2c3ccccc3CC2C)cc1 (stereo unspecified) | 0%
O=[N+]([O-])c1ccccc1CCO | 1%
Cc1cccc(-n2c(SCC(N)=O)nnc2-c2ccccn2)c1C | 9%
Cc1cc(N2CCN(S(=O)(=O)c3ccc4c(c3)OCCO4)CC2)n2ncnc2n1 | 1%
COc1ccccc1CN1CC2(CCN(C(=O)c3cccc(F)c3)CC2)C1 | 6%
CCOC(=O)c1c2n(c3ccc(O)cc13)CCCCC2 | 3%
COc1ccc(CNc2nc(SC)n[nH]2)cc1OC | 7%
Cc1cnc(NC(=O)CSc2nnc(-c3ccncc3)n2C2CCCCC2)s1 | 12%
COc1ncc2nc(-c3ccccc3)c(=O)n(C[C@H]3CCCO3)c2n1 | 25µM*
Cc1ccc(S(=O)(=O)NCC(=O)N(CC(=O)NCc2ccco2)Cc2ccc3c(c2)OCO3)cc1 | 0%
